Screening results as filed in PubChem BioAssay.
WNV protease inh: inhibitors of West Nile virus NS2B-NS3 protease | P06935 | AID 577 | 65,000 tested, 0.18% active | WNV NS2B-NS3 protease, fluorogenic substrate Ex360/Em465; hits give low values | z-score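 (tested at a level between 10 and 100 µM)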;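 active means z-score at -3 or under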;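 further: score is relative to mean and spread of the compound wells of a plate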
Target sequence (P06935 1371-1501 limits assumed): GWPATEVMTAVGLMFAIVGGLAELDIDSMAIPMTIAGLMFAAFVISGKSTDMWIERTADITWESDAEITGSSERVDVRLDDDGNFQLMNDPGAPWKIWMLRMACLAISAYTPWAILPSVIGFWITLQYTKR
Target sequence (P06935 1502-1679 limits assumed): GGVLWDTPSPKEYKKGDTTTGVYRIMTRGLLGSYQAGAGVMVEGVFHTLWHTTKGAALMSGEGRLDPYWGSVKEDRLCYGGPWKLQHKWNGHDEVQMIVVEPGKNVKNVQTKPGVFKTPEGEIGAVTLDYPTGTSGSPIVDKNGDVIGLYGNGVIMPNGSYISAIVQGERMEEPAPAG
Hsc70 ATP site: small molecules displacing fluorescent ligand from Hsc70 – biochemical, fluorescence polarization, primary screen (AID 568). 83,000 tested, under 10 active. Hsc70 fluorescence polarization, probe displacement; higher % means a stronger effect; strong numbers were not always called active. displacement, % at 20 µM, or IC50 in µM where a hit was titrated;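 active means displacement above 50% without optical interference and an IC50 on retest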;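 further: ATPase domain with a fluorescein-tagged ATP probe; 0% = vehicle and 100% = excess ADP; read after one hour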
MT1-MMP reporter: inhibitors of MT1-MMP promoter transcription, cell-based, luciferase reporter, luminescence (AID 618) | MT1-MMP promoter luciferase reporter cells, luminescence | calls from a first round at 10 µM; hits with a dose series show EC50 in µM | 87,000 tested, 0.62% active;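 active means over half of the reporter light lost at 10 µM or EC50 under 50 µM; inactive means the rest and hits that failed the dose series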;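 further: actives suppress MT1-MMP promoter-driven transcription so potencies describe inhibitors; HT1080 fibrosarcoma cells; overnight exposure; toxic or luciferase-blocking compounds were not removed from the actives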
An asterisk follows results filed as active; i = inactive; . = not tested or not shown; + = active, no number.

Results follow in this order: WNV protease inh, Hsc70 ATP site, MT1-MMP reporter
1: Clc1ccc(-c2nnc(-c3ccco3)o2)cc1
    -0.72, 1.3%, i
2: O=C(Nc1ccc(Sc2ccc(Br)cc2)cc1)c1ccco1
    ., 0.8%, i
3: O=C(CCCSc1nnc(-c2cccs2)n1CC1CCCO1)c1ccccc1 (stereo not given)
    -0.8, -1.5%, i
4: CCCCc1nc2sc3c(c2c(=O)[nH]1)CCC3
    0.11, 5.1%, i
5: CCn1cnc2cc(NCc3ccc(C)cc3)ccc21
    -0.5, 1.1%, i
6: C=CCc1ccc(OCC(O)CN2CCCCC2)c(OC)c1 (stereo not given)
    -0.36, -0.2%, i
7: O=C(Nn1c(-c2ccc(F)cc2)nc2ccccc2c1=O)C1CCCCC1
    ., 3.7%, i
8: COc1cc(-c2nnc3sc(-c4ccco4)nn23)cc(OC)c1OC
    -0.98, 0.0%, i
9: CN(C)S(=O)(=O)N(CC(=O)NCc1ccccc1)c1ccccc1
    0.35, 1.5%, i
10: C=CCC1CCCCC12NC(=O)NC2=O (stereo not given)
    -0.68, -0.1%, i
11: COCC(COCCCNC(=O)Nc1ccc(Br)cc1)OC (stereo not given)
    2.3, -3.7%, i
12: c1ccc2c(c1)nc(NC1CCCCC1)c1nncn12
    0.19, 6.7%, i
13: CC(C)P(=O)(Cc1cccc(C#N)c1)C(C)C
    0.02, 1.9%, i
14: CCN1C(=O)c2ccccc2S(=O)c2ccc(C(=O)NCCCN3CCCC3=O)cc21 (stereo not given)
    0.04, 3.5%, i
15: COc1ccc(OCC(=O)Nc2cc(OC)cc(OC)c2)cc1
    -0.34, -2.5%, i
16: O=C(Cn1nnc2c(cnn2-c2ccccc2)c1=O)NCc1cccs1
    -0.39, -9.8%, i
17: CCCn1c(CCNC(=O)c2cccs2)nc2ccccc21
    -0.02, 4.2%, i
18: Cc1occc1-c1nnc(SCC(=O)Nc2nc(-c3ccccc3)cs2)o1
    ., 6.5%, i
19: CCC(C)(C)n1nnnc1C(C(C)C)N(Cc1ccco1)Cc1cc2cc3c(cc2[nH]c1=O)OCO3 (stereo not given)
    ., 5.1%, i
20: CCCc1[nH]nc2c1C(c1ccc(O)c(OC)c1)C(C#N)=C(N)O2 (stereo not given)
    0.02, -3.5%, i
21: COc1ncnc2c1oc1nc(CC(C)C)c3c(c12)CCCC3
    1.1, 4.9%, i
22: CCOC(=O)c1ccc(COc2nc3ccccc3nc2-c2ccccc2NC(C)=O)o1
    0.28, 4.8%, i
23: COCCNC(=O)C(c1ccccc1C)N(CCOC)C(=O)Cn1nnc2ccccc21 (stereo not given)
    -0.61, -3.4%, i
24: Cc1cccc(-c2noc(-c3ccc(F)cc3)n2)c1
    1.1, 3.9%, +
25: c1ccc(Cn2nnnc2-c2ccco2)cc1
    0.45, 2.8%, i
26: O=C(C1CCCN(S(=O)(=O)c2ccc(Br)s2)C1)N1CCCCCC1 (stereo not given)
    0.4, 7.6%, i
27: CN1CCN(C(=O)c2ccc3c(c2)NC(=O)C(N2CCOCC2)S3)CC1 (stereo not given)
    0.11, 3.6%, i
28: CCCOc1ccc(C2/C(=C(\O)c3c(C)[nH]c(C(=O)OC)c3C)C(=O)C(=O)N2CCN(C)C)cc1 (stereo not given)
    -0.65, 0.0%, i
29: CCOC(=O)CC(=O)CSc1nnc(Cn2c(=O)sc3ccccc32)n1C
    -1.3, -2.8%, i
30: Cc1noc(C)c1CSc1nnc(-c2ccccc2F)n1CCc1ccccc1
    -0.07, 7.8%, i
31: O=C(N1CCN(c2ccccc2F)CC1)C12CC3CC(CC(C3)C1)C2
    -0.48, -6.1%, i
32: Cc1ccc(-n2nc(C(=O)NCc3ccc(C)o3)c3c4ccccc4n(C)c3c2=O)cc1
    ., -2.7%, i
33: CCC(N)C12CC3CC(CC(O)(C3)C1)C2 (stereo not given)
    ., 5.3%, i
34: CN(C)S(=O)(=O)N1CCN(c2cc(Cl)ccc2Cl)CC1
    0.15, -0.4%, i
35: CCC(C)NC(=O)CNC(=O)Cn1c(C)cc2ccccc2c1=O (stereo not given)
    0.11, 0.0%, i
36: CN(C)CCSc1nc(N)c2c3c(sc2n1)CN(C)CC3
    0.47, 1.3%, i
37: CCOC(=O)C(C)Sc1nc(C2CC2)cc(C(F)(F)F)c1C#N (stereo not given)
    ., 2.7%, i
38: CC1CCN(C(=O)CCNS(=O)(=O)c2ccccc2)CC1
    0.0077, -0.7%, i
39: CCOC(=O)c1c(NC(=O)COC(=O)Cn2cnc3ccccc32)sc(C)c1C
    -1.1, -3.1%, i
40: Cc1ccc(N2C(N)=NC(N)=NC2(C)C)c(C)c1
    -0.9, 2.6%, i
41: CCOC(=O)C1=C(c2ccccc2)Nc2c(c(=O)n(C)c(=O)n2C)C1c1ccc(O)c(OC)c1 (stereo not given)
    ., -2.7%, i
42: O=C(CSc1nnc(-c2cccc(S(=O)(=O)N3CCOCC3)c2)n1C1CCCCCC1)NCc1ccccc1
    ., -2.2%, i
43: Cn1c(CNC(=O)Cc2ccc3c(c2)OCO3)nnc1SCc1ccccc1
    1.1, -9.1%, i
44: N#Cc1c(NC(=O)c2nc3ncccn3n2)sc2c1CCCCC2
    3.6, 1.0%, i
45: CN(C)CCCn1c(-c2ccccc2)nc(=S)c2c1CCCC2
    ., -5.0%, i
46: O=C(N/C=N/O)C1=NOC(CNc2ncc(C(F)(F)F)cc2Cl)C1 (stereo not given)
    ., 0.8%, i
47: CCCCc1cc(=O)oc2cc(OCc3nn[nH]n3)c(Cl)cc12
    -0.65, 0.0%, i
48: CCn1cc(C(=O)NCC2CCCO2)c2cc(OC)c(OC)cc2c1=O (stereo not given)
    1.1, 0.8%, i
49: CCCCn1c(SCC(=O)Nc2nnc(C)s2)nc2c1c(=O)n(C)c(=O)n2C
    -1.3, 4.1%, i
50: COc1ccccc1NC(=O)CSc1nc(O)cc(=O)[nH]1
    0.0016, 3.7%, i
51: CCCn1c(SCC(=O)Nc2nc(C)c(C(=O)OC)s2)nnc1C(C)C
    -0.68, -1.0%, i
52: COc1ccc(-c2c3c(=O)n(C)c(=O)n(C)c3cn2-c2cc(OC)ccc2OC)cc1
    -0.62, -3.0%, i
53: COc1ccccc1N1CCN(CCCNC(=O)Nc2ccccc2)CC1
    0.39, 1.4%, i
54: CN1CCN(S(=O)(=O)c2ccc(NC(=O)c3ccco3)cc2)CC1
    0.7, -5.1%, i
55: Cc1cc(C)cc(-c2nc(-c3ccncc3)no2)c1
    0.77, -1.9%, i
56: COc1ccc(OCC(=O)N2CCN(C(=O)c3ccco3)CC2)cc1
    ., 1.1%, i
57: COC(=O)[C@H](C)NC(=O)Nc1ccc(S(N)(=O)=O)cc1
    -0.97, 0.4%, i
58: CSc1nc(N2CCOCC2)c2c(c1C#N)CC(C)(C)OC2
    ., 3.7%, i
59: O=C(Nc1ccc(S(=O)(=O)N2CCOCC2)cc1)C1CCCCC1
    -0.21, 2.7%, i
60: COCCn1nnnc1C(c1ccccc1)N1CCN(C)CC1 (stereo not given)
    -1, -1.7%, i

Copied from the list:
Under Hsc70 ATP site, COCCn1nnnc1C(c1ccccc1)N1CCN(C)CC1 (stereo not given) has -1.7%
Under Hsc70 ATP site, CCC(C)(C)n1nnnc1C(C(C)C)N(Cc1ccco1)Cc1cc2cc3c(cc2[nH]c1=O)OCO3 (stereo not given) has 5.1%

One compound at a time, from the list above. Order of screens: WNV protease inh	Hsc70 ATP site	MT1-MMP reporter
O=C(CCCSc1nnc(-c2cccs2)n1CC1CCCO1)c1ccccc1 (stereo not given) is listed as -0.8	-1.5%	i
N#Cc1c(NC(=O)c2nc3ncccn3n2)sc2c1CCCCC2 is listed as 3.6	1.0%	i
O=C(C1CCCN(S(=O)(=O)c2ccc(Br)s2)C1)N1CCCCCC1 (stereo not given) is listed as 0.4	7.6%	i
CC(C)P(=O)(Cc1cccc(C#N)c1)C(C)C is listed as 0.02	1.9%	i

Later entries:
Results follow in this order: WNV protease inh, Hsc70 ATP site, MT1-MMP reporter
61: C=CCOC(=O)C1=C(C)OC(N)=C(C#N)C1c1ccc2c(c1)OCO2 (stereo not given)
    0.002, 7.5%, i
62: O=C1c2ccccc2C(=O)N1CCSc1n[nH]c(=S)s1
    ., 3.5%, i
63: O=c1c2c3c(sc2n2cnnc2n1Cc1ccccc1)CN(Cc1ccccc1)CC3
    -0.15, 2.9%, i
64: c1ccc2c(N3CCOCC3)nc(N3CCOCC3)nc2c1
    ., 2.7%, i
65: CC1(C)Cc2c(cnn2-c2ccccc2)-c2c1c1ccccc1n2CC(O)CCl (stereo not given)
    ., 0.7%, i
66: COc1ccc(CCCc2nnc(SCC(=O)Nc3ncc(C)s3)o2)cc1
    1, 0.2%, i
67: CC(C)c1nc(SCC(=O)N2CCOCC2)c2c(=O)n(C)c(=O)n(C)c2n1
    -0.44, -1.5%, i
68: Cc1cc(-c2ccco2)n(CC(=O)NCCCc2ccccc2)n1
    0.77, 2.4%, i
69: O=C(COC(=O)Cn1cnc2ccccc21)NCCc1ccc(Cl)cc1
    ., -1.2%, i
70: Cc1cc(-c2nnc(SCC(=O)Nc3ccccc3C(F)(F)F)o2)c(C)n1-c1ccccc1
    ., -1.2%, i
71: COc1ccc(OC)c(N2C(N)=NC(N)=NC23CCCC3)c1
    0.73, -3.4%, i
72: COC(=O)c1cc2sccc2n1CC(=O)Nc1ccc(OC)c(OC)c1OC
    -0.42, -1.1%, i
73: O=C(Cc1ccc(Cl)cc1)Nc1ccc2oc(-c3ccncc3)nc2c1
    -2.1, -10%, i
74: CC(=O)Oc1cccc(N2C(=O)C3CC=C(Cl)CC3C2=O)c1 (stereo not given)
    -0.39, 4.0%, i
75: COc1ccc(C(c2sc3ncnn3c2O)N2CCN(c3ccccc3F)CC2)cc1OC (stereo not given)
    -0.62, 2.6%, i
76: COc1ccc(C2C(C(=O)Nc3cccnc3)=C(C)Nc3nc(-c4ccco4)nn32)cc1 (stereo not given)
    0.29, 4.5%, i
77: CC(=O)c1sc2nc(=O)c(C)nn2c1C
    -1.5, 8.9%, i
78: CC1CN(C(=O)c2ccc3c(c2)OCO3)OC(c2ccccc2)O1 (stereo not given)
    0.61, 3.6%, i
79: CCn1cc(C(=O)NCCCN(C)c2ccccc2)c(=O)c2cc(S(=O)(=O)N(C)C)ccc21
    0.22, 5.4%, i
80: Cc1nc(-c2c(-c3ccc(O)cc3O)noc2C(F)(F)F)cs1
    -1.2, -0.1%, i
81: S=C(Nc1ccccc1)c1ccccn1
    ., 2.3%, i
82: CCn1cc(C(=O)NCCCN2CC(C)CC(C)C2)c2cc(OC)c(OC)cc2c1=O (stereo not given)
    ., -2.8%, i
83: COc1ccc(NC(=O)c2c(NC(=O)CNCc3ccco3)sc3c2CCC3)cc1
    0.31, -12%, i
84: CCC1C(=O)N=C(SCC(=O)Nc2ccccc2)NC1=O (stereo not given)
    ., 1.3%, i
85: O=C(NCCC1=CCCCC1)N[C@@H](Cc1ccccc1)C(=O)O
    -0.77, 2.6%, i
86: COc1ccc(CCNC(=O)CSc2nnc(-c3cccc(C)c3)o2)cc1OC
    -0.25, 3.0%, i
87: Cc1noc(C)c1C(=O)N1CCc2ccccc2C1
    -0.37, 0.1%, i
88: O=C(CCS(=O)(=O)Cc1ccccc1F)N1CCc2ccccc2C1
    1.1, 2.3%, i
89: Nc1ccc2oc(-c3ccccn3)nc2c1
    -0.38, 2.8%, i
90: Cc1cc(-n2c(C)cc(C(=O)CSc3nnnn3-c3ccccc3)c2C)no1
    1.6, 3.4%, i
91: CCOC(=O)C1CCCN(C(=O)C(C)Oc2ccc(Cl)cc2Cl)C1 (stereo not given)
    -0.54, -1.9%, i
92: Cc1cccc(CN2CCNC2=O)c1
    -0.9, -8.2%, i
93: COc1ccc(N2CCN(C(c3ccccc3)c3nnnn3Cc3ccc(F)cc3)CC2)cc1 (stereo not given)
    -0.67, -9.2%, i
94: COc1ccc(CN(Cc2cc3ccc(C)cc3[nH]c2=O)Cc2nnnn2C2CCCC2)cc1
    -0.77, -1.6%, i
95: O=C(Nc1ccccc1-c1nnn(CC(=O)N2CCCc3ccccc32)n1)c1ccc(Cl)cc1
    ., -0.8%, i
96: CCOC(=O)c1cc(CC)sc1NC(=O)Cc1ccsc1
    -0.51, 6.8%, i
97: CCOc1ccc(OCCCCNCCN)cc1
    ., 2.6%, i
98: O=c1[nH][nH]c2nc(C(F)(F)F)cc(C(F)(F)F)c12
    1.8, -3.0%, i
99: COc1ccc(N2C(=O)C(CC(=O)O)S/C2=C\C(C)=O)cc1 (stereo not given)
    1.5, 1.3%, i
100: COc1ccc(Cc2nnc(SCC(=O)Nc3nc(C)cs3)o2)cc1
    1, -1.4%, i
101: CS(=O)(=O)c1ccc2nc(NC(=O)C3C4C=CC(C4)C3C(=O)O)sc2c1 (stereo not given)
    0.86, -3.5%, i
102: COC(=O)c1ccc(COC(=O)c2ccccn2)cc1
    -0.16, 2.1%, i
103: C=CCNC(=O)c1ccc(C)cc1Cl
    -0.19, 2.6%, i
104: C=CCn1c(Cc2cccs2)nnc1SCC(=O)Nc1cc(OC)cc(OC)c1
    1.2, -1.1%, i
105: c1ccc(COc2ccc(OCCOCCn3cncn3)cc2)cc1
    -1.9, 9.3%, i
106: NS(=O)(=O)c1ccc(Cc2ncc(C(F)(F)F)cc2Cl)s1
    ., -1.6%, i
107: COc1ccccc1CNC(=O)[C@@H]1CCCN1C(=O)C1CCN(S(=O)(=O)c2ccc(C)cc2)CC1
    -0.62, -1.0%, i
108: CCN(CC)CCOC(=O)c1cccc(Br)c1
    1.6, 5.9%, i

The order is random; about 0.8% have a hit in one of these screens.
